2A StopGo = lowers the luciferase signal of an FMDV 2A StopGo reporter. human cells with a luciferase reporter of 2A StopGo recoding; control for the full effect not named in the record. Potency, µM (highest dose often 57.9 µM), for inactives: at the highest dose signal change, negative = less light. 410,000 tested, 1.2% active; active = well fitted falling curve with a large enough effect; inconclusive = small, poorly fitted or top-dose-only effect; inactive = no such curve, though single readings can be large or run the other way; tested in HEK293T cells; also: % is scaled to controls: 0 for no effect and ±100 for the full control effect; nearly all actives have a fitted effect of over 45% in size; luciferase light after 4 h
Cruzain Triton = cruzain (T. cruzi) inhibition with detergent | purified cruzain, Z-FR-AMC fluorescence, 0.01% Triton | Potency, µM, without a hit: max response, negative = inhibition, actives largely listed as inhibitors | 200,000 tested, 0.43% active;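 also: plate controls were neutral wells for no effect and buffer without enzyme for full effect; nearly all actives have a fitted effect of over 40% in size; top concentration of the series not given in the record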
Target sequence (P25779 123-467 limits assumed): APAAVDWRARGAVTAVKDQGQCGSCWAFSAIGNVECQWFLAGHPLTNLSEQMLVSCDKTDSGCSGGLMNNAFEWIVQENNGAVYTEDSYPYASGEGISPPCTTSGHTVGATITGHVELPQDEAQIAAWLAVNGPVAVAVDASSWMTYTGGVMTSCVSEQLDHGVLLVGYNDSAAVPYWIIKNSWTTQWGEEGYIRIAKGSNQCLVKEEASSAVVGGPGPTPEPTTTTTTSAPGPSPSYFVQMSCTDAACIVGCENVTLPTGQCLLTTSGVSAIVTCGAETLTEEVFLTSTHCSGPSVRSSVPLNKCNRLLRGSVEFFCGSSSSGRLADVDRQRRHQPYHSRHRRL
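Compounds were screened in titration against cruzain (1.5 nM) with 0.01% Triton X-100 to counter colloidal aggregation. Activity was the AMC fluorescence increase over 60 s after adding 2 uM Z-FR-AMC at pH 5.5.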
Marburg entry inh = blocks Marburg virus binding to or entry into cells | Marburg virus pseudotyped entry inhibition, cell reporter; control for the full effect not named in the record; about a third of the inactives were read at about 46 µM | Potency, µM (titrated, usually from 37.8 µM), without a hit: top-dose activity change, negative = inhibition, actives largely listed as inhibitors | 300,000 tested, 1.8% active; active = well fitted inhibition curve with a large enough effect; inconclusive = small, poorly fitted or top-dose-only effect, or effect the other way; inactive = flat fitted curve, though single readings scatter; tested in HEK293 cells; about a fifth of its hits are not listed in these tables; also: % is scaled to controls: 0 for no effect and ±100 for the full control effect; luciferase read-out
LASV entry inh = Lassa virus entry inhibition; Lassa virus pseudotype entry inhibition, cell reporter; control for the full effect not named in the record; Potency, µM (highest dose often 37.9 µM), without a hit: at the top dose activity change, negative = inhibition, actives largely listed as inhibitors; 300,000 tested, 1.2% active; active means well fitted inhibition curve with a large enough effect; inconclusive means small, poorly fitted or top-dose-only effect, or effect the other way; inactive means flat fitted curve, though single readings scatter; tested in HEK293 cells; also: % is scaled to controls: 0 for no effect and ±100 for the full control effect; nearly all actives have a fitted effect of over 50% in size; luciferase read-out
SARS PLpro yeast = inhibitors of SARS-CoV papain-like protease in yeast | S. cerevisiae expressing SARS-CoV PLpro, growth rescue; control for the full effect not named in the record | Potency, µM (doses to about 32.9 µM), inactives show at the top dose activity, positive = growth rescue | 330,000 tested, 0.19% active; active means well fitted rising curve with a large enough effect; inconclusive means small, poorly fitted or top-dose-only effect; inactive means no such curve, though single readings can be large or run the other way; also: 0% is about no effect; nearly all actives have a fitted effect of over 55% in size; growth read by luminescence after 48 h
NS1 function inh = blocks influenza NS1 protein function; Potency, µM (highest dose often 46.1 µM), inactives show at the highest dose activity, positive = more growth; 270,000 tested, 0.4% active; S. cerevisiae slowed by influenza A NS1, growth recovery by OD600; active means well fitted rising curve with a large enough effect; inconclusive means small, poorly fitted or top-dose-only effect; inactive means no such curve, though single readings can be large or run the other way; also: nearly all actives have a fitted effect of over 50% in size
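Compounds were scored for reversing the slow growth caused by influenza A NS1 in S. cerevisiae, measured by optical density at 600 nm. Assay medium contained 2% galactose at pH 6.0; NS1-free yeast of the same strain were the positive control.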
Cruzain inh noDet = inhibitors of Trypanosoma cruzi cruzain without detergent | P25779 | purified cruzain, Z-FR-AMC fluorescence, no detergent | Potency, µM, without a hit: max response, negative = inhibition, hits mostly inhibitors | 200,000 tested, 2.3% active | AID 1476;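 also: plate controls were enzyme without inhibitor for no effect and buffer without enzyme for full effect; nearly all actives have a fitted effect of over 40% in size; top concentration of the series not given in the record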
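Purified cruzain at 1.5 nM, pre-incubated 15 min with compound at room temperature in 100 mM sodium acetate pH 5.5, 5 mM DTT, 0.00005% Triton X-100. Reaction started with 2 uM Z-FR-AMC; AMC fluorescence increase over 60 s gives rate.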
RE007 growth inh = less growth of the S. pombe RE007 Vpr strain; S. pombe RE007 Vpr strain, BacTiter-Glo ATP luminescence, 24 h; control for the full effect not named in the record; 360,000 tested, 0.21% active; Potency, µM (doses to about 92.2 µM), inactives show at the top dose activity change, negative = less growth; AID 651644; active = well fitted falling curve with a large enough effect; inconclusive = small, poorly fitted or top-dose-only effect; inactive = no such curve, though single readings can be large or run the other way;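 also: % is scaled to controls: 0 for no effect and ±100 for the full control effect; nearly all actives have a fitted effect of over 50% in size; the assay follows cell death caused by Vpr and the record does not say whether a fall means rescue or toxicity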
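Fission yeast RE007 carrying one integrated HIV-1 vpr copy, seeded at OD 0.01 in PMG+AL medium with 23 nL pinned compound. Grown 24 h at 30 degrees; viability read by BacTiter-Glo luminescence after 5 min.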
Active calls of the source: *; ? = inconclusive; / = not tested or not shown; & = joins results of further samples; [ ] = another dose, or the depositor's remark. Unless noted, calls follow the shape of the dose curve; as a rule, active = well fitted curve in the direction sought with a large enough effect; inconclusive = small, poorly fitted or top-dose-only effect, or another doubt; inactive = no such curve, though single readings can be large; an effect the other way counts as inactive or inconclusive. Potency is read from the fitted curve at half-maximal effect.

Compound	Cruzain inh noDet	RE007 growth inh	Marburg entry inh	NS1 function inh	Cruzain Triton	SARS PLpro yeast	LASV entry inh	2A StopGo
Cn1c(=O)c2c(nc(N3CCCCC3)n2CCNC2=NCCC2)n(C)c1=O	2%	1%	-10%	5%	-1.9%	4%	0%	-11%
COc1ccc(Cn2c(SCC(=O)Nc3ccc(OC)cc3)nc3ccccc32)cc1	3%	/	/	/	-3.1%	/	?	?
CCC(C)[C@H](NC(=O)[C@@H]1Cc2c([nH]c3ccccc23)C2c3ccccc3C(=O)N21)C(=O)N1CCC[C@@H]1C(=O)O (stereo not given in full)	/	-6%	/	?	/	-9%	/	-16%
CCc1cccc(C)c1Nc1c(-c2cccs2)nc2ncccn12	0%	/	-10%[46.1 µM]	/	-9.8%	/	-31%[46.1 µM]	-20%
CCOC(=O)CNC(=O)CSc1nc(N)cc(N)n1	2%	7%	11%	-3%	1.8%	5%	2%	27%
Cc1ccc(NC(=O)CN2C(=O)COc3ccc(S(=O)(=O)N4CCCC4)cc32)cc1C	/	6%	3%[46.1 µM]	7%	/	1%	?	-14%
O=C(c1ccc2c(c1)N(Cc1ccc(Cl)cc1)C(=O)c1ccccc1S2=O)N1CCC(Cc2ccccc2)CC1 (stereo not given)	?	/	?	/	-0.5%	/	?	-29%
O=C(c1ccc2c(c1)OCCO2)C1CCN(C(=O)Nc2ccccc2F)CC1	/	5%	17%[46.1 µM]	-20%	/	-10%	?	-8%
CCN(CC)c1ccc(-c2n[nH]c(=S)n2-c2ccccc2C)cc1	/	-16%	/	12%	/	1%	/	-22%
OC(CN1CCN(c2ccccc2F)CC1)c1ccc(F)cc1 (stereo not given)	/	95%	11%[46.1 µM]	1%	/	0%	5%[46.1 µM]	20%
Cc1ccc(CCNC(=O)CS(=O)Cc2nc(-c3cccs3)oc2C)cc1 (stereo not given)	/	-12%	/	0%	/	-5%	/	-20%
Cc1nnc(N/N=C/C2CC=CCC2)[nH]c1=O (stereo not given)	/	-13%	16%[46.1 µM]	2%	/	0%	5%	6%
O=C(Nc1ccc(F)cc1F)Nc1csc2ccccc12	/	-20%	?	-55%	/	-6%	?	7%
CCCCOc1cccc(/C=C(\C#N)C(=O)NC2CC2)c1	/	6%	?	-54%	/	-18%	-8%[46.1 µM]	-14%
Cc1cccc(C(=O)Nc2ccc(S(=O)(=O)Nc3nc(C)cc(C)n3)cc2)c1	/	4%	/	2%	/	-4%	/	44%[activator]
O=C1c2ccccc2C(=O)C1c1nccc2ccccc12	-16%	-5%	2.5µM*	0%	-4.8%	-3%	?	-69%
CNC(=O)NC(=O)COC(=O)/C=C/c1cccc(Br)c1	/	-3%	/	5%	/	2%	/	-23%
Cc1[nH]c2ccccc2c1C(=O)CN1CCCC1	-9%	-4%	-5%	-6%	1.0%	2%	0%	/
CSc1cc(-c2ccc(Cl)cc2)c(C(=O)N2CCCC2)s1	-4%	-5%	0%	-13%	-2.6%	-20%	9%	0%
COc1ccc(-c2cn[nH]c2-c2ccc(OCC(=O)NN)cc2O)cc1OC	/	11%	25%	7%	/	0%	?	10%
CSc1ccccc1C(=O)N1CCC(CCC(=O)NC2CC2)CC1	/	4%	/	5%	/	-3%	/	-3%
COc1ccc(N2CCN(C(=O)CCNC(=O)c3ccc(C(C)(C)C)cc3)CC2)cc1	/	0%	/	2%	/	-4%	/	?
CC1(c2ccccc2)NC(=O)N(CC(=O)NNC(=O)c2ccccc2F)C1=O (stereo not given)	/	10%	-12%[46.1 µM]	/	/	-2%	-1%	-11%
CCCC(=O)Nc1ccc(NC(=O)Cc2ccccc2)cn1	-9%	8%	3%[46.1 µM]	-1%	-0.7%	2%	-1%	-5%
CCOC(=O)c1c(C)c(-c2ccccc2)n(CC(=O)NCCC(C)C)c1C	?	7%	/	2%	8.5%	-4%	/	-6%
Cc1ccc(C(=O)N/C(=C\c2ccco2)C(=O)NCCN2CCOCC2)cc1C	/	1%	7%	0%	/	-12%	11%	-2%
CN(NC1OC(=O)c2ccccc21)c1ccc(Cl)cc1[N+](=O)[O-] (stereo not given)	/	1%	-2%	-38%	/	-1%	-9%	-1%
CC(C)Cn1c(N)c(C(=O)COC(=O)c2ccc(Cl)cc2)c(=O)n(C)c1=O	/	-19%	-19%[46.1 µM]	/	/	-11%	-14%[46.1 µM]	-20%
Fc1cccc(NCc2ccoc2)c1	-8%	-13%	26%	10%	0.5%	0%	0%	-5%
Cc1[nH]c(=S)[nH]c(=O)c1Cc1c(O)ccc2ccccc12	/	0%	9%	/	/	/	-11%	-8%
O=C(c1ccc(Cn2cc(Cl)cn2)cc1)N1CCN(c2ccccc2)CC1	13%	-1%	-5%	-61%	-0.1%	/	10%	-3%
O=C(NCc1ccco1)Nc1ccc2nsnc2c1	?	1%	?	1%	-3.5%	0%	?	52%[activator]
CCC(Sc1nc(-c2ccccc2)[nH]c1S(=O)(=O)c1ccc(C)cc1)C(=O)O (stereo not given)	3%	/	5%[46.1 µM]	/	-5.5%	/	0%[46.1 µM]	0%
COC(CNC(=O)c1c[nH]c2ccc(S(=O)(=O)N3CCOCC3)cc2c1=O)OC	/	2%	/	6%	/	-4%	/	-6%
Cc1ccc2c(=O)cc(C(=O)Nc3ccc(S(=O)(=O)N4CCCCCC4)cc3)oc2c1C	0%	/	22%[46.1 µM]	/	-1.5%	/	-2%[46.1 µM]	-8%
Cn1c(CN2CCCCC2)nc2cc(NC(=O)c3ccccc3)ccc21	12%	-6%	11%	-11%	-0.5%	2%	36%[14.3 µM]	-8%
COc1ccccc1Cc1nc2ccccc2nc1SCC(=O)NCc1ccc(F)cc1	-10%	/	/	/	2.3%	/	5%[46.1 µM]	9%
CCCCN1CCCc2cc(CN(CCCN3CCOCC3)C(=O)Nc3ccc(CC)cc3)ccc21	-6%	/	/	/	0.4%	/	29%[46.1 µM]	?
CCOc1ccc(NC(=O)CCCOc2cc(=O)n(C)c3ccccc23)cc1	?	0%	4%[46.1 µM]	4%	0.4%&2.1%	?	12%[46.1 µM]	3%&35%
CN(C1=NC(=O)C(CC(=O)O)S1)c1ccc(O)cc1 (stereo not given)	/	-2%	?	-2%	/	1%	16%	-7%
CC(C)NC(=O)c1ccccc1NC(=O)C1COc2ccccc2O1 (stereo not given)	-12%	-14%	-12%[46.1 µM]	-1%	-0.9%	-5%	-12%	?
COc1ccc(-c2nc3ccccc3o2)cc1NC(=O)c1cccc2c(Cl)cccc12	17%	/	6%[46.1 µM]	/	0.3%	/	21%[46.1 µM]	5%
COc1ccc(C(=O)c2sc3nc4c(c(C(F)(F)F)c3c2N)CN(C(C)=O)CC4)cc1OC	?	/	-11%[46.1 µM]	/	-5.8%	/	?	0%
CC(=O)Nc1ccc(C(C#N)c2ccccc2)cc1 (stereo not given)	/	?	?	3%	/	9%	1%[46.1 µM]	-2%
CCCS(=O)(=O)N1CCC(C(=O)N2CCCC2)CC1	0%	0%	?	10%	3.1%	3%	-11%	2%
CCCCOC(=O)c1ccc(NC(c2ccc(C)cc2)P(=O)(OC)OC)cc1 (stereo not given)	?	37%	?	1%	-12%	-33%	?	0%
COc1ccc(N2C(=O)c3ccc(C(=O)Nc4cc(OC)ccc4OC)cc3C2=O)cc1	/	-25%	/	1%	/	13%	/	-9%
CSCCC(NC(=O)c1ccco1)C(=O)N1CCN(Cc2ccccc2)CC1 (stereo not given)	/	-2%	22%	/	/	5%	12%	0%
Nc1ccc(-c2cc(N)n(-c3ccccc3)n2)cc1	1%	-15%	?	11%	-0.5%	-4%	-2%	40%[activator]
COc1cccc(NC(=O)Cn2nc(-c3ccncc3)ccc2=O)c1	-5%	/	/	/	-2.5%	/	7%[46.1 µM]	11%
Cc1cccc(N2CCN(C(=O)c3cccc(N4CCCC4=O)c3)C(C)C2)c1 (stereo not given)	/	2%	/	5%	/	0%	/	?
COc1ccc(C(=O)NC2CCCc3c2cnn3-c2ccccc2F)o1 (stereo not given)	/	-8%	/	8%	/	3%	/	?
Cc1ccnc(NC(=O)Cc2ccc([N+](=O)[O-])cc2)c1	/	11%	-20%[46.1 µM]	1%	/	1%	18%	40%[activator]
Cc1cc(C)c(S(=O)(=O)c2cccc(Cl)c2)c(=O)[nH]1	/	1%	-1%[46.1 µM]	-7%	/	1%	?	18%
CCC1(CC)NC(=O)N(CC(=O)NCc2ccc3c(c2)OCO3)C1=O	-5%	-13%	/	-2%	1.3%	6%	2%	-2%
COCCNc1oc(COc2cccc(C)c2)nc1C#N	7%	20%	?	5%	0.2%	-2%	30%	-3%
CCOC(=O)c1c(C)[nH]c(C)c1C(=O)COC(=O)[C@@H]1CCCN1S(=O)(=O)c1ccc(Cl)cc1	?	9%	-1%	-4%	-4.2%	-9%	22%	16%
CCN(CC(=O)Nc1c(F)cccc1F)C(=O)CCNS(=O)(=O)c1ccccc1C(F)(F)F	/	14%	?	/	/	6%	18%	-4%
COC(=O)c1c(S(C)(=O)=O)nc(-c2ccccc2)[nH]c1=O	3%	13%	10%	3%	-5.2%	14%	14%	-18%
Cc1cc(Cl)ccc1NC(=S)N(CCCN1CCOCC1)Cc1cccs1	3%	-6%	?	-1%	0.6%	8%	19%	12%

The results go on.
Compound	Cruzain inh noDet	RE007 growth inh	Marburg entry inh	NS1 function inh	Cruzain Triton	SARS PLpro yeast	LASV entry inh	2A StopGo
CN1CCc2c(c3ccccc3n2Cc2ccccc2)C1	-1%&1%&-6%	-6%&3%	/	-7%	3.1%&0.7%&-1.0%	-7%	/	-8%&-24%&0%
CC(=O)Oc1cccc(N2C(=O)C3C4C=CC(CC4)C3C2=O)c1 (stereo not given)	/	23%	5%[46.1 µM]	1%	/	0%	1%[46.1 µM]	-14%
CC(=O)c1c(Cl)nc2cccc3c2c1-c1ccccc1C3=O	/	19%	-4%[46.1 µM]	-13%	/	-2%	4%[46.1 µM]	3%
CCN(CC)C(=O)c1sc2c(c1C)c(=O)n(CCc1ccccc1)c(=O)n2Cc1ccc(F)cc1Cl	2%	/	/	/	2.6%	/	7%[46.1 µM]	-6%

Compound activity deposited in PubChem BioAssay by National Center for Advancing Translational Sciences (NCATS).
